# Screening data from PubChem.
# Rce1 inh – inhibitors of yeast Ras-converting enzyme | Q03530 | yeast membranes, quenched prenylated peptide cleavage fluorescence | calls only | 0.27% of 290,000 active;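 active = fall in fluorescence gain of 50% or more versus controls, with final raw signal at or below 3038400; inconclusive = same 50% fall but final raw signal above 3038400; inactive = fall in fluorescence gain under 50%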;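 note: plate controls were neutral control wells for no effect and wells lacking membranes for full effect; tested at 10 µM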
# Target sequence (Q03530 whole entry, looked up): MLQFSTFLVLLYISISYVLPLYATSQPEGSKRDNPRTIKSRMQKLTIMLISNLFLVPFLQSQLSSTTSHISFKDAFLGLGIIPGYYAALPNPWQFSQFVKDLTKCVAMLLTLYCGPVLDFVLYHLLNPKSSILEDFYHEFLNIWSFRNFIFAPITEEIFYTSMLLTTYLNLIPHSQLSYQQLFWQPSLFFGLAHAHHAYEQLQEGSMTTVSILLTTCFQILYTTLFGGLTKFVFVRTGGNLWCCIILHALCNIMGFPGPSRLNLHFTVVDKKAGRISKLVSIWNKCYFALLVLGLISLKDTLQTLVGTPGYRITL
# PABP FP inh – PABP-poly(A) binding inhibition; PABP-poly(A) RNA binding, fluorescence polarization; 1% of 290,000 active; P11940; inhibition, % at 35 µM;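 active = 50% or more with normal probe brightness, or confirmed in later tests; inconclusive = above 50% with abnormal brightness, or retests that disagree; inactive = below 50% or failed in later tests; about a fifth of its hits are not listed in these tables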;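 note: calls also rest on retests at 20 µM and on dose response follow-up; controls were probe without protein and protein plus probe with vehicle; some compounds called inactive have numbers as strong as hits; many hits fall short of the cut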
# Target sequence (P11940 whole entry, looked up): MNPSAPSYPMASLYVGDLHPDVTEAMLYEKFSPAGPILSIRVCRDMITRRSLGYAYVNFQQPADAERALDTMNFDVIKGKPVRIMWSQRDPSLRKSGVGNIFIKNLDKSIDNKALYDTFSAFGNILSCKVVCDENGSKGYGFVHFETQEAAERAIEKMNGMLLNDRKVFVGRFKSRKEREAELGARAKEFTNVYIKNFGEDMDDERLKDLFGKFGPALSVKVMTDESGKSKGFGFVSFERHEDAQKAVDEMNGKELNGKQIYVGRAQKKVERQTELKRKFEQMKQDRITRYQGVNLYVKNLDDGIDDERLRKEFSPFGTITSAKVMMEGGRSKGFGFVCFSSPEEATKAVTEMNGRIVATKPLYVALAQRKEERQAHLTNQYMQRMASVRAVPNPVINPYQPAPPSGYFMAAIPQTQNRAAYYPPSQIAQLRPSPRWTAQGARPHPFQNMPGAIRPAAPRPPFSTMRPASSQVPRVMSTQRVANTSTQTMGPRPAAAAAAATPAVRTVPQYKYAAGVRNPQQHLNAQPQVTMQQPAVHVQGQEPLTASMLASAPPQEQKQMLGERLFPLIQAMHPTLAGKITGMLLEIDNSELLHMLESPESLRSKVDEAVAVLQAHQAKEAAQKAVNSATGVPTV
# CSC inhib – cancer stem cell inhibition | cancer stem cell-like cells viability, luminescence | inhibition, % at 7.5 µM | 1.1% of 300,000 active | AID 2717;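 active = mean at 75% or more and at least half the replicates too; inconclusive = mean and replicates disagree; tested in HMLE shEcad cells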;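 note: 0% = median of negative and 100% = median of positive control wells; the first replicate is given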
# eIF4H inh – inhibitors of RNA binding by human eIF4H. eIF4H fluorescence polarization binding assay. inhibition, % at 35 µM. 0.94% of 290,000 active. AID 2012;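 active = 50% or more with normal probe brightness, or confirmed in later tests; inconclusive = above 50% with abnormal brightness, or retests that disagree; inactive = below 50% or failed in later tests; about a fifth of its hits are not listed in these tables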;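 note: calls also rest on retests at 20 µM and on dose response follow-up; 0% = protein and probe with vehicle and 100% = probe without protein; strong numbers were not always called active; many hits fall short of the cut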
# Env fusion inh – blocks HIV Env-driven cell-cell fusion | AID 651610 | 1.1% of 360,000 active | inhibition, % at 12.3 µM | HeLa-JRFL Env/CEM21 cell fusion, luciferase;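 active = mean replicate inhibition score of at least 50 and every replicate individually at or above 50; inconclusive = only one of the two criteria met; inactive = mean below 50 and not all replicates reaching 50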;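 note: 0% = plate neutral controls and 100% = maraviroc near 300 nM; one replicate is shown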
# MT1-MMP act inh – MT1-MMP (human) activation inhibition; P50281; HT1080 RFP-PRO-GFP cells, GFP/RFP ratio fluorescence, overnight; percent of plate control window, DMSO zero; GFP/RFP ratio change, % at 20 µM; 0.061% of 360,000 active; AID 651647;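 active = GFP/RFP ratio change of at least 30% with cell ATP level not reduced by more than half and red fluorescence within 50% of control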; note: strong numbers were not always called active
#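 Material: RFP-PRO-GFP reporter HT1080 cells. Dosing: single-point 20 µM compound, 1% DMSO. Controls: DMSO and RFP-L50D-GFP cell wells. Timing: cells overnight before dosing, compound overnight, 37 °C, 5% CO2. Measure: GFP/RFP fluorescence ratio.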
# Yeast UUG start – yeast start codon fidelity modulation | S. cerevisiae UUG-firefly luciferase reporter, luminescence/redox ratio | 0.13% of 350,000 active | activity score, % at 18.7 µM;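 active = replicate mean at a twofold rise or more, about +100% in these data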;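 note: firefly luciferase made from a UUG start codon reports start codon fidelity; reporter light over untreated wells divided by growth signal over untreated wells; some hits fall short of that in this replicate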
# eIF4H inh retest – recorded beside eIF4H inh, whose call it bears; inhibition, %; compound at 20 µM; confirmation average;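 mean of two retest wells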
# PABP FP inh retest – also measured in PABP FP inh; calls as there; inhibition, %; compound at 20 µM; confirmation repeats;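 mean of two retest wells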
# MT1-MMP act inh RFP – also measured in MT1-MMP act inh; calls as there; RFP signal change, %; measured here: RFP expression control read;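 0 = vehicle wells; hits needed this value within 50% of zero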
# Starred values were filed as active, the others as inactive; i = inactive; ? = inconclusive; . = not tested or not shown; + = active, no number; & = joins results of further samples; [ ] = dose if it differs, or a comment. An excerpt, so the mix of outcomes need not match the whole.
SMILES,Rce1 inh,PABP FP inh,CSC inhib,eIF4H inh,Env fusion inh,MT1-MMP act inh,MT1-MMP act inh RFP,Yeast UUG start,others
O=C(c1cc(S(=O)(=O)N2CCCCC2)ccc1N1CCOCC1)N1CCN(Cc2ccccc2)CC1,i,-1,4,0,-10,0,0,.,
COc1cccc(C(c2ccccc2)N2C3CCC2CN(S(=O)(=O)c2ccc(F)cc2)CC3)c1 (configuration not stated),i,.,27,.,38,-5,-10,-20,
CN1C(=O)c2oc3ccccc3c(=O)c2C1c1ccncc1 (configuration not stated),i,0,-12,-1,.,2,11,.,
COC(=O)c1ccn(Cc2ccccc2Cl)n1,i,-10,.,9,-16,1,2,.,
CCN1C(=O)c2ccccc2Sc2ccc(C(=O)NCCN3CCOCC3)cc21,i,-3,-13,9,?,0,5,-13,
Cc1ccc(NC(=O)COC(=O)CSC(=S)N2CCOCC2)cc1C,i,-15,-4,-7,-2,-2,3,.,
O=C(CCC(=O)N1CCOCC1)NCc1cccc(C(F)(F)F)c1,.,.,.,.,3,1,6,-7,
O=C(Nc1cccs1)Nc1c(F)cc(F)cc1Br,i,1,0,4,15,-5,2,.,
C=C(C)CNC(=O)c1ccc(OC2CCN(S(=O)(=O)N(C)C)CC2)cc1,i,7,12,-9,17,3,-2,.,
COC(=O)c1[nH]c2ccc(C)cc2c1NC(=O)C1=COCCO1,i,-6,-6,-7,.,1,4,-18,
CCOC(=O)Cn1c(=O)cc(C)c2cccc(C)c21,i,0,6,-5,11,2,2,.,
CCOC(=O)CNC(=O)CSc1nc(Cc2cccs2)nc2ccccc12,i,1,.,1,.,-5,-1,-21,
COc1ccc(C2C(C(=O)N3CCCCC3)c3ccccc3C(=O)N2C)cc1 (configuration not stated),.,0,-2,10,-19,-4,0,7,
Cc1ccc(Nc2cc(C)nn2-c2nc(C)cc(=O)[nH]2)cc1,i,6,93*,8,.,-14,-37,-71,
Cc1noc(C)c1S(=O)(=O)Nc1ccc(C(=O)O)cc1,i,-5,-9,-4,.,-2,2,1,
CCc1c(C)nc(N)n2c(SCC(=O)N3CCCC(C)C3)nnc12 (configuration not stated),i,-11,12,3,-43,4,1,7,
CCC(CO)Oc1cc(NCc2ccccc2O)c2ncn(C(C)C)c2c1 (configuration not stated),.,.,.,.,10,4,5,1,
CCOC(=O)Cn1c(=O)c(-c2ccccc2NCc2ccccc2)nc2ccccc21,i,.,3,.,-27,15,0,-17,
CN(CC(=O)NCc1ccco1)CC(=O)Nc1ccc(F)c(F)c1F,.,.,-13,.,14,1,3,-5,
COC(=O)c1[nH]c(C)c(/C(O)=C2\C(=O)C(=O)N(CCN(C)C)C2c2cccs2)c1C (configuration not stated),i,3,-18,-9,-33,0,4,-14,
O=C(CSc1nnc(-c2ccco2)n1-c1ccccc1)N1CCN(C(=O)c2ccco2)CC1,i,-10,3,1,.,-4,-1,-10,
O=C(CSc1ccc2ccccc2n1)NCCC1=CCCCC1,i,-8,1,-10,7,-2,1,-3,
CCn1ccc(C(=O)Oc2ccc(C(C)C)cc2)n1,i,4,-11,-7,.,-2,-3,-9,
Cn1ccc(NC(=O)c2ccc(Cl)cc2Cl)n1,.,.,-6,.,.,-1,-3,-21,
COc1cc(/C=N/NC(=O)C(N)=O)cc(OC)c1O,i,2,-4,-10,4,4,6,-24,
Cc1ccccc1Cn1c2ccccc2c2cnn(CC(=O)NCc3ccco3)c(=O)c21,i,2,-2,10,-17,5,2,-3,
COc1ccc([N+](=O)[O-])cc1NC(=O)COC(=O)/C=C/c1ccco1,i,-7,14,27,15,1,5,.,
Cn1c(=O)c2c(ncn2CC(=O)OCC(=O)c2ccc(Cl)cc2)n(C)c1=O,i,.,-12,.,18,-2,2,1,
Cn1ccc2c(-c3ccc(C(F)(F)F)cc3)cc3c(c21)C1CCC3C1 (configuration not stated),.,.,.,.,17,9,2,-6,
O=C(COC(=O)CNC(=O)C1CCCCC1)NCc1ccc(Cl)cc1,.,.,15,.,-1,1,4,-2,
CC(C)N1CCc2c(sc(NC(=O)c3ccc4ccccc4c3)c2C(N)=O)C1,i,21,79*,?,19,-59,0,-18,
O=C(COC(=O)C1(c2ccccc2)CC1)NNC(=O)c1ccccc1F,i,.,-9,.,-2,2,2,8,
Cc1ccccc1-n1c(C)nnc1SCc1cc(=O)oc2ccc3ccccc3c12,i,3,4,19,-2,-9,2,-14,
O=C(COC(=O)c1ccc(O)cc1O)Nc1ncc(Cl)cc1Cl,i,.,-5,.,-3,-1,5,.,
Cc1cc(C)nc(NC(=S)Nc2cccc(Cl)c2Cl)c1,i,9,-3,9,-21,2,0,8,
O=C(NCc1n[nH]c(=S)n1-c1ccccc1)c1cccs1,i,7,1,4,-29,-2,5,-21,
O=C(CCNC(=O)c1ccc(Br)cc1)NCc1ccncc1,i,.,.,.,-15,5,1,-25,
COC(=O)c1cc(OC)c(OC)cc1NC(=O)c1cnccn1,i,-4,.,-7,.,.,.,.,
Cc1cc(C(=O)CCl)c(C)n1CCc1ccccc1,i,-1,24,-2,-15,.,.,.,
COCCn1nnnc1C(c1cc2cccc(C)c2[nH]c1=O)N1CCN(c2ccccc2F)CC1 (configuration not stated),i,14,-9,7,.,1,8,7,
Cc1ccc(NC(=O)Cn2nc(-c3ccccc3Cl)ccc2=O)c(Br)c1,i,10,11,-8,-16,-2,2,-3,
CC(=O)c1ccc(NC(=S)NCCc2ccc(S(N)(=O)=O)cc2)cc1,i,1,-10,5,-24,5,-6,-15,
CCOc1ccccc1N1CC(C(=O)Nc2ccc3c(c2)OCCO3)CC1=O (configuration not stated),i,-6,-1,-2,12,0,3,-10,
COC(OC)c1ccnc(-c2ccc(OC(C)=O)cc2)n1,i,10,11,0,-2,3,-2,.,
CC1CCCN(Cc2nc(Cc3ccccc3Cl)no2)C1 (configuration not stated),i,7,2,0,-31,0,1,.,
COc1ccc(Cl)cc1-c1nc(N)nc(N(C)C)n1,i,48,-6,-13,-13,2,6,.,
CC1(C)Cc2c(c(N3CCOCC3)nc3sc4c(NN)ncnc4c23)CS1,i,-10,87*,-1,21,2,3,3,
C=CCC[C@H](Cc1ccc(F)cc1)C(=O)OC[C@@H](C)NC(=O)[C@@H](CC=C)CC(=O)N[C@H](CO)Cc1ccccc1,.,.,.,.,-22,-3,-7,-4,
C[C@H](CO)N1C[C@H](C)[C@H](CN(C)S(C)(=O)=O)Oc2c(cccc2N(C)C)C1=O,.,.,-15,.,5[16.7 µM],-1,3,-14&-18,
CCOC(=O)c1sc2nc(C3CC3)cc(-c3ccc(F)cc3)c2c1N,+,1,-4,3,20,-6,-2,-5,
C=C1CCN(C(C(=O)OC)C(C)C)S(=O)(=O)c2ccccc21 (configuration not stated),i,-1,.,-7,-16,-1,3,-9,
O=C(NCCS(=O)(=O)N1CCN(c2ccccc2)CC1)c1ccc(Br)o1,i,.,13,.,7,.,.,-12,
COC(=O)c1c(NC(=O)CN2CCC3(O)CCCCC3C2c2ccc(OC)cc2OC)sc(C)c1C (configuration not stated),i,4,22,31,66*,-14,-5,.,
O=c1c([N+](=O)[O-])c(NCCN2CCCCCC2)c2ccccc2n1-c1ccccc1,i,-2,-3,0,-106,-3,-1,.,
Cc1cc(C)cc(C(=O)Nc2ccc3[nH]c(=O)[nH]c3c2)c1,i,-12,6,-4,-6,1,6,.,
CCOC(=O)c1c(NC(=O)CC)sc2c1CCN(Cc1ccccc1)C2,i,-10,11,-5,-23,5,2,-1,
O=C(NCc1ccc(Cl)cc1)c1cc(S(=O)(=O)N2CCCCC2)c[nH]1,i,-20,6,-4,-6,4,-3,-17,
COc1ccc(C2c3sc(=O)[nH]c3SC3C(=O)N(c4ccccc4)C(=O)C32)cc1 (configuration not stated),i,-8,1,66*,-13,0,4,5,eIF4H inh retest=74*;PABP FP inh retest=13
COC(=O)c1cc(NS(=O)(=O)c2ccc3c(c2)CCC(=O)N3)cc(C(=O)OC)c1,i,13,12,-7,.,1,3,-15,
COc1ccc(N2C(=O)C(CN3CCCCC3)C2c2ccccc2)cc1 (configuration not stated),i,7,4,5,2,1,4,.,
# (more compounds)
SMILES,Rce1 inh,PABP FP inh,CSC inhib,eIF4H inh,Env fusion inh,MT1-MMP act inh,MT1-MMP act inh RFP,Yeast UUG start,others
COCCOC(=O)c1c(C)n(C)c2ccc(OC(=O)c3cccs3)cc12,i,-2,13,-6,-3,10,4,-1,
CC(=O)Nc1ccc(OC(=O)c2ccc(Cl)cc2)cc1,i,-10,5,-1,-1,4,6,5,
Cc1ccnc(Nc2cccnc2)n1,.,.,.,.,12,-4,0,-13,
C/C(CC(=O)Nc1ccc(Cl)c(Cl)c1)=N\NC(=O)Cc1ccccc1,i,2,-1,5,.,3,3,.,
CC(=O)c1ccc(NC(=S)N2C(C)CCCC2C)cc1 (configuration not stated),i,2,-2,2,.,.,.,.,
Cc1cc(NC(=O)CSc2ccc(-c3ccc4c(c3)OCO4)nn2)no1,i,-14,-3,-5,-9,.,.,.,
CN(C(=O)c1cccc(NC(=O)Cc2ccc(NC(=O)C3CCN(C(=O)C4CCCC4)CC3)cc2)c1)C1CCCCC1,.,.,.,.,0,-6,-3,-11,
Cn1c2ccccc2c2cnn(CC(=O)NCCCN3CCN(c4ccccc4F)CC3)c(=O)c21,i,-5,-13,-4,15,1,0,-18,
COc1ccc(C(=O)NNC(=O)c2ccc(S(=O)(=O)N3CCCCC3)cc2)cc1,i,-4,-4,-7,11,-4,-5,.,
COC(=O)c1ccc(CSc2nc3ccc(C)cc3[nH]2)o1,i,-3,-10,-12,.,5,2,-24,
CC(NS(=O)(=O)c1cccc(C(=O)NCc2ccncc2)c1)c1ccccc1 (configuration not stated),.,.,.,.,i,-3,1,-9,
CN1CCN(c2ccc(Cl)cc2NS(=O)(=O)c2ccccc2Cl)CC1,i,-1,-12,-5,15,-5,3,.,
O=C(CSc1nnc2c(n1)[nH]c1ccccc12)Nc1ccc2c(c1)OCO2,i,0,6,10,-59,2,-9,-8,
c1ccc(Oc2ccc(-c3ccnc4nc(N5CCN(c6ccccc6)CC5)nn34)cc2)cc1,i,-1,34,-4,-69,-7,-6,-12,
CC(C)(C)c1ccc(OC(=O)c2ccccc2)cc1,i,2,-8,-1,16,-1,3,-25,
CCNC(=O)CC1C(=O)N(c2ccccc2)C(=O)N1CCOC (configuration not stated),i,0,-13,11,9,6,5,10,
COc1ccc(NC(=O)CSc2c(C)n[nH]c2C)cc1,i,2,-8,-6,-38,4,2,-2,
NNC(=O)C1C(O)CCC2CN3CCc4c([nH]c5ccccc45)C3CC21 (configuration not stated),.,.,.,.,-194,-58,1,1,
COc1ccc(S(=O)(=O)N(C)c2ccc(C(=O)N3CCC(C(N)=O)CC3)cc2)cc1,i,-11,14,-4,.,4,-2,12,
COC(=O)c1ccc(N2CCN(c3ccccc3)CC2)nc1,i,-5,6,5,-31,8,-1,-3,
COC(=O)c1sccc1NC(=S)Nc1cccc(F)c1,i,-9,5,-6,6,1,3,.,
CCn1c(-c2ccoc2C)n[nH]c1=S,i,4,-9,-2,-82,3,5,-10,
